# gsp antagonist: antagonists of gsp mutant (McCune-Albright syndrome). gsp-mutant cells, cAMP HTRF, 30 min; control for the full effect not named in the record. Potency, µM (titrated, usually from 76.9 µM), without a hit: top-dose activity change, negative = inhibition, actives largely listed as inhibitors. hit rate 0.4% among 340,000. AID 624288; active = falling curve of any shape with a large fitted effect; inconclusive = falling curve, mostly with a smaller effect; inactive = flat or rising curve; cell line not stated here;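 note: intracellular cAMP measured with PDE inhibitor Ro 20-1724 present during compound exposure; potency is the fitted concentration of half-maximal effect; % is set by controls: 0 for no effect and ±100 for the full control effect; nearly all actives have a fitted effect of over 65% in size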
#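 HTRF cAMP read-out (cAMP-d2 plus anti-cAMP antibody-K in lysis buffer, 30 min RT). Before lysis, cells are exposed to compounds with […] for 30 min at 37C in DPBS containing Ca/Mg, BSA and Tween 20.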
# CtBP-E1A inh: CtBP/E1A binding inhibition. AlphaScreen GST-E1A/His-CtBP binding, 1536-well; hits give low values; control for the full effect not named in the record. activity change, % (no concentration beside the values). hit rate 0.49% among 340,000. AID 651724; in the data active means activity change below about -65%; inconclusive means about -30% to -65%; inactive means above about -30%; note: % is set by controls: 0 for no effect and ±100 for the full control effect; compound concentration not given in the record
#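 In 5 uL wells, 23 nL compound meets equimolar GST-E1A and His-CtBP (5X stock 125 nM each) for 2 h, 37 °C. Beads (5X, 50 ug/mL) then 1 h, 37 °C, dark.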
# Menin MLL FP FL: inhibitors of human menin-MLL interaction, wild-type MLL peptide; 290,000 tested, under 10 active; FP activity change, % at 61.4 µM; Fluorescence polarization, fluorescein-MLL peptide displacement from menin; AID 1766; inconclusive = falling polarisation curve, or a change in total fluorescence; inactive = total fluorescence flat and polarisation flat or rising; no compound was filed as active; the % refers to the polarisation; negative = inhibition;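 note: % of control where 0% means no effect; inhibitors lower the polarisation; unlabelled MLL peptide was the positive control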
# ClpP mod: qHTS Assay for Activators of ClpP. ATP-dependent Clp protease proteolytic subunit (Bacillus subtilis (strain 168)), P80244. purified B. subtilis ClpP, FRET peptide cleavage, 20 min. hit rate 1.9% among 340,000. Potency, µM (top dose mostly 57.5 µM), without a hit: at the top dose activity change, negative = active. AID 651965, 2013; active = well fitted falling curve with a large enough effect; inconclusive = small, poorly fitted or top-dose-only effect; inactive = no such curve, though single readings can be large or run the other way; note: potency is the fitted concentration of half-maximal effect; the source files actives as falling curves though it sought activators and does not explain the sign; nearly all actives have a fitted effect of over 65% in size; many hits overshoot -100%
# Target sequence (P80244 whole entry, looked up): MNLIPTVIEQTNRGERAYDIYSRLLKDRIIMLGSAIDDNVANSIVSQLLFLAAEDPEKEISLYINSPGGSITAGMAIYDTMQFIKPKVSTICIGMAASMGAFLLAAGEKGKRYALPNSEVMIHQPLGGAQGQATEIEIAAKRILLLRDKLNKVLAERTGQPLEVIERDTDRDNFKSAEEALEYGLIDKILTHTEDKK
#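 Buffer: 100 mM Tris/HCl pH8, 100 mM KCl, 0.05% low protease BSA, 2.5% glycerol, 0.01% Tween-20. ClpP 10 microg/mL final; 20 min RT; delta FRET normalized to ADEP and DMSO controls.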
# TRPV1 PAM: human TRPV1 potentiation; hit rate 0.02% among 320,000; TRPV1-expressing cells, Fluo-8 calcium influx, capsaicin EC20 potentiation; host cell line not named in the record; control for the full effect not named in the record; potentiation, % at 8.33 µM; active means potentiation above 80%; inconclusive means 30% to 80%; inactive means below 30%; note: 0% is about no effect
# Target sequence (Q8NER1 whole entry, looked up): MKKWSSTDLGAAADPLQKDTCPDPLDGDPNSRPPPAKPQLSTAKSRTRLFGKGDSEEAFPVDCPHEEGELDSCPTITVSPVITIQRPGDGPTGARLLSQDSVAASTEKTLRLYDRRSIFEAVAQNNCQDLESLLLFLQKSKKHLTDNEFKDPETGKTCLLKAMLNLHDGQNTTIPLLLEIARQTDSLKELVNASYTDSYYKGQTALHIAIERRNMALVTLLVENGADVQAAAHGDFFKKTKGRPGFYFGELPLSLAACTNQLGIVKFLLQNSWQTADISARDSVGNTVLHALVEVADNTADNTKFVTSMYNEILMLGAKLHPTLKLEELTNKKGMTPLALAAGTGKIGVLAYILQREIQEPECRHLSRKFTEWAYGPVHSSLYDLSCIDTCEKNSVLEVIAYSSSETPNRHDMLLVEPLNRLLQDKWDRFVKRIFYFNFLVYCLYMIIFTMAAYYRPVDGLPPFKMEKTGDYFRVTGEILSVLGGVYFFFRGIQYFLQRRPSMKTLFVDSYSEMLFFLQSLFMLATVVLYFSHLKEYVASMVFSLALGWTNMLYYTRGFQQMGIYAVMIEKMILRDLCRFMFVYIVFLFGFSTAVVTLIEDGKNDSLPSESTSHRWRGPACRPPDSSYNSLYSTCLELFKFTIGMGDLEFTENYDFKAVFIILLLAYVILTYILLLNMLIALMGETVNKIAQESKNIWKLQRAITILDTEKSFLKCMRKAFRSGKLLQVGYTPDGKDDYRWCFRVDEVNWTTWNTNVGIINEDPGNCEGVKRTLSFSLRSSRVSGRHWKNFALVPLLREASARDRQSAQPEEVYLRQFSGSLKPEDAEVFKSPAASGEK
#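 Fluo-8 calcium influx in TRPV1-expressing cells, kinetic read (ex 480/em 520 nm). Compound added and read 3 min for agonist activity, followed by capsaicin at EC20 final and 2 min further read for enhancement.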
# gsp agonist: agonists of gsp mutant (McCune-Albright syndrome) | gsp mutant cells, cAMP HTRF, 30 min; control for the full effect not named in the record | Potency, µM (titrated, usually from 76.9 µM), for inactives: top-dose activation (cAMP increase), hits mostly activators | hit rate 0.13% among 340,000 | AID 624287; active = well fitted activation curve with a large enough effect; inconclusive = small, poorly fitted or top-dose-only effect, or another doubt; inactive = no such curve, though single readings can be large or run the other way; cell line not stated here;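 note: phosphodiesterase inhibitor Ro 20-1724 added with compounds to block cAMP breakdown; potency is the fitted concentration of half-maximal effect; nearly all actives have a fitted effect of over 60% in size; about a fifth of the inactives were tested at one dose only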
#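 Cells stably selected in G418 were plated at 2000/well, grown 16-24 hr, then given compounds in DMSO with the PDE inhibitor […] (300 uM solution added) for 30 min at 37C; cAMP was read by HTRF.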
# Sfp PPTase inh: blocks B. subtilis Sfp PPTase activity; Potency, µM, without a hit: max response, negative = inhibition, actives largely listed as inhibitors; Q9F4F7; Biochemical Sfp PPTase activity, qHTS; hit rate 3.5% among 310,000; active = well fitted inhibition curve with a large enough effect; inconclusive = small, poorly fitted or top-dose-only effect, or another doubt; inactive = no such curve, though single readings can be large or run the other way;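 note: the enzyme is Sfp with the accession as filed and its product quenches rhodamine fluorescence; potency is the fitted concentration of half-maximal effect; 0% = enzyme reaction without inhibitor and -100% = no enzyme wells; top concentration of the series not given in the record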
#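 Buffer: 50 mM Hepes-Na pH 7.6, 10 mM MgCl2, 0.01% Nonidet P-40, 0.01% BSA. Enzyme 15 nM, pre-exposed to compound 15 min; substrates then added and fluorescence change tracked over 30 min.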
# The depositor's hits bear a star; u = inconclusive; x = not tested or not shown; & = joins results of further samples; [ ] = dose if it differs, or a comment. Compounds were not picked by outcome, and some 5.3% of all compounds hit somewhere here.
SMILES,gsp antagonist,CtBP-E1A inh,Menin MLL FP FL,ClpP mod,TRPV1 PAM,gsp agonist,Sfp PPTase inh
C=CCNC(=O)CSc1nnc(-c2ccc(S(=O)(=O)N3CCCC3)cc2)n1C,14%,-8,-2.8,x,28,-1%[15.4 µM],6%
O=C(Nc1nccs1)c1ccc([N+](=O)[O-])cc1,4%,-1,-2.0,x,-1,-16%[15.4 µM],9%
CN1CCN(S(=O)(=O)c2ccc(Nc3cccc(Cl)c3)c([N+](=O)[O-])c2)CC1,0%,u,x,-4.2%,-4,13%,x
Cc1cc(=O)[nH]c(N/N=C/c2cn(CCC#N)nc2-c2ccccc2)n1,8%,u,-0.6,-6.3%,-6,-21%,u
S=C1NC2(CCCCCC2)N=C1c1ccccc1,11%,4,-1.7,x,-8,7%[15.4 µM],19%
COc1ccc(-c2cn3cccnc3n2)cc1,9%,1,-2.9,x,4,29%,4%
CCOC(=O)c1nc(Nc2cc(Cl)ccc2OC)c2ccccc2n1,u,x,3.5,19%,2,u,13%
CC(=O)N(C1=C(N2CCOCC2)C(=O)c2ccccc2C1=O)c1ccc(C(=O)O)cc1,-4%,x,-0.8,-3.2%,-13,23%,-12%
CCNc1nc(NCc2ccccc2)nc(Oc2ccc(=O)[nH]n2)n1,15%,0,4.2,1.0%,9,19%,17%
O=[N+]([O-])c1[nH]cnc1/C=C/c1ccccc1,-8%,u,0.5,x,-14,26%[15.4 µM],7%
CC(=O)c1csc(-c2cccc(-c3nc4ccc(Cl)cn4c3NC3CCCCC3)c2)c1,-9%,-4,x,-1.2%,5,-3%,x
Cc1nnc(SCc2ccc(CSc3nnc(C)c(=O)[nH]3)cc2)[nH]c1=O,-1%,0,1.3,x,4,0%[15.4 µM],u
CC(=O)NC1C(=O)SC1(C)C (stereo not given),x,x,-1.9,x,2,x,u
CCOC(=O)N1CCC(NC(=O)C2CCCN(S(=O)(=O)c3cccc4nsnc34)C2)CC1 (stereo not given),-11%,3,0.6,-1.4%,-4,15%,9%
O=c1c2ccccc2ncn1CCOCCOc1ccc([N+](=O)[O-])cc1,-15%,x,1.2,0.8%,2,24%,13%
O=C1c2[nH]nc(-c3ccccc3O)c2C(c2ccccc2F)N1Cc1ccco1 (stereo not given),-17%,-9,2.9,-0.1%,14,u,-4%
O=[N+]([O-])c1ccc(N2CCCCCC2)c([N+](=O)[O-])c1,u,u,-0.2,-0.9%,-17,-4%,-1%
CCNC(=O)C(=O)Nc1cc2c3c(c1)CCN3C(=O)CC2,8%,x,x,1.3%,-5,16%,-1%
COC(=O)Nc1ccc(S(=O)(=O)N2CCCC(C(=O)O)C2)cc1 (stereo not given),11%,-7,1.6,x,0,-9%,7%
CCc1ccc(C2c3[nH]c4ccccc4c3CCN2C(=O)CN2CCN(CC)CC2)cc1 (stereo not given),7%,u,-1.6,x,7,-18%,u
COc1cc(NS(=O)(=O)c2ccc(C)c(C)c2)c(OC)cc1Cl,u,-3,0.3,-2.7%,-16,-41%[inhibitor],79µM*
C/C(CC1(O)C(=O)Nc2ccccc21)=N\O (stereo not given),-2%,-3,3.3,-1.0%,8,-36%[inhibitor],16%
O=C(C=Cc1ccccc1)c1ccc([N+](=O)[O-])cc1,4%,3,x,x,x,9%,x
Cc1ccc2c(c1)[C@H]1[C@H](CO2)[C@H](c2ccccc2)[C@]2(C)C(=O)N(Cc3ccc(F)cc3)CC(=O)N12,-17%,-8,x,-3.8%,x,x,x
CCN(CC)CC(=O)Nc1ccc(-c2nc3cc(NC(=O)CN(CC)CC)ccc3o2)cc1,0%,-1,0.5,1.9%,u,u,10%
CN(C)CCCNC(=O)C[C@H]1C[C@H](C(=O)N2CCOCC2)[C@@]2(C)c3[nH]c4cc(-c5ccco5)ccc4c3CCN2C1=O,9%,15,x,3.0%,x,x,x
CC1(C)Cc2c(C#N)c(N3CCN(C(=O)c4ccccc4)CC3)nc(Cc3ccccc3)c2CO1,3%,-8,-0.9,32µM*,17,29%,3%
O/N=C/c1cn(-c2ccccc2)nc1-c1ccccc1,8%,4,-0.5,x,-7,15%[15.4 µM],-2%
COc1ccc(N2CC(C(=O)N[C@@H](C)C(=O)NC3CCCC3)CC2=O)cc1 (stereo not given in full),13%,-7,x,-7.5%,u,-17%,20%
Cc1cccnc1NC(=O)CCNC(=O)c1ccc(Br)cc1,-4%,1,x,-1.7%,-25,19%,11%
Cc1ccc(C(=O)NCCc2nnc(SCC(=O)Nc3cccc(C(=O)O)c3)n2C)cc1,10%,8,x,0.1%,17,-44%[inhibitor],10%
O=C(CN1CCN(C(=O)c2ccco2)CC1)Nc1cc(Cl)ccc1Cl,7%,-4,0.7,0.3%,8,12%,-10%
CN(C)c1ccc(NC(=O)CN2CCC(O)(c3ccccc3)CC2)cc1,-6%,-6,0.0,x,8,4%[15.4 µM],-5%
Cc1ccc(S(=O)(=O)N(C)Cc2nc(-c3ccc(Br)cc3)no2)cc1,-25%,12,-0.8,-2.0%,-6,-44%[inhibitor],u
COc1cccc(-n2c(=O)c3sccc3n(CC(=O)NCC3CCCO3)c2=O)c1 (stereo not given),7%,2,5.7,0.5%,-11,-24%,13%
COc1ccc2c(c1)cc(C)c1nnc(SCC(=O)N(C)c3nc(-c4ccccc4)cs3)n12,3%,-11,-2.2,-17%,-1,5%,8%
O=C(NCc1cccnc1)[C@@H]1CC=C[C@@H]2CCN(Cc3ccccc3)C(=O)[C@@H]21,8%,6,x,-0.3%&1.2%,x,x,x
CCC(C)N(C(=O)CSc1nc(-c2cccs2)nc2ccccc12)C1CCS(=O)(=O)C1 (stereo not given),u,15,x,-28%,x,u,x
c1ccc(C2CC(c3ccccc3)n3ncnc3N2)cc1 (stereo not given),2%,6,2.3,-1.6%,-4,23%,19%
CCCCNC(=O)CN1C(=O)c2cccc(N)c2C1=O,9%,-1,u,x,-7,1%[15.4 µM],26%
CC(C)n1c(SCC(=O)Nc2nncs2)nnc1C1CC1,-16%,5,x,2.4%,-2,-24%,20%
O=C(O)CCn1cc(/C=C2\NC(=S)N(c3ccccc3)C2=O)c(-c2ccc(Br)cc2)n1,-25%,x,9.0,-3.4%,-1,1%,12%
CN(C)CCOC(=O)CCc1ccccc1,3%,4,1.0,-2.0%,15,2%,20%
CCOC(=O)C1(CCOc2ccccc2)CCN(Cc2ccc(C(=O)OC)cc2)CC1,-9%,0,-1.2,-0.8%,-7,-28%,4%
Cc1cccc(Nc2c([N+](=O)[O-])ccc3nonc23)c1C,-7%,-5,-8.3,-0.2%,-11,-3%,15%
N/C(=N\S(=O)(=O)c1cc(C(F)(F)F)cc(C(F)(F)F)c1)c1ccncc1,-14%,9,x,0.5%,-7,8%[15.4 µM],18%
Cc1c(NC(=S)NC(=O)CSc2ccc(Cl)cc2)cccc1C(=O)O,0%,0,-0.3,-2.3%,15,-26%,13%
Cc1cccc(C(=O)n2c(=S)nc3ccccn32)c1,1%,-2,-1.6,-6.1%,6,-29%,40µM*
O=C1CCN(CCc2ccccc2)CCN1[C@H](CSc1ccc(Br)cc1)Cc1ccccc1,-5%,-14,10,0.3%,-14,x,7%
COc1ccc(N2CC(NC(=O)c3cccc4ccccc34)CC2=O)cc1OC (stereo not given),0%,12,x,-1.4%,3,8%,x
Cc1ccc(CNC(=O)c2cc(S(=O)(=O)N3CCCC3)cn2C)cc1,1%,-5,-2.7,2.2%,8,2%,6%
CCCCN1C(=O)C(=O)N(CC(=O)Nc2cc(S(=O)(=O)N(C)C)ccc2C)C1=O,-5%,8,x,x,-17,-7%[15.4 µM],x
O=C(c1cc2ccccc2o1)N1CCN(S(=O)(=O)c2ccccc2)CC1,-36%,0,x,1.5%,0,u,x
CCCn1c(N)c(N2CCCCC2)c(=O)n(CC(=O)Nc2cccc(S(=O)(=O)N(C)C)c2)c1=O,10%,4,x,0.2%,x,-32%[inhibitor],x
O=C(N/N=C/c1ccc2c(c1)OCO2)c1ccn(Cc2ccc(Cl)cc2)n1,4%,-1,x,28µM*,14,0%[15.4 µM],3%
CN1C[C@H](C(=O)N[C@]2(C)O[C@@]3(O)[C@@H]4CCCN4C(=O)[C@H](Cc4ccccc4)N3C2=O)CC2c3cccc4[nH]cc(c34)C[C@H]21 (stereo not given in full),-19%&-2%,-14&3,x,-2.3%&0.9%,u,x,x
c1ccc2c(c1)C(=Nn1cnnc1)c1ccccc1-2,-8%,0,2.9,-0.7%,-13,-23%,9%
O=[N+]([O-])c1ccc(N/N=C2/CCCCC2c2ccccn2)cc1 (stereo not given),-10%,-6,3.9,x,5,12%[15.4 µM],-15%
O=c1[nH]n(CCO)c(=O)c2cccnc12,3%,1,4.5,-0.7%,-3,-4%[15.4 µM],1%
CNC(=O)C(C)N1c2cccc3cccc(c23)S1(=O)=O (stereo not given),13%,x,2.6,u,7,u,5%
COc1ccc2c(C)nc(N/C(N)=N/S(=O)(=O)c3ccc(C)cc3)nc2c1,0%,u,0.4,x,5,3%,13%
O=C(NCCCNc1ccc([N+](=O)[O-])cc1)C(F)(F)F,10%,6,0.4,0.9%,-17,-9%,0%
CC(=O)OC1CCC2(C)C3CCC4(C)C(C(C)=O)CCC4C3CC3OC32C1 (stereo not given),11%,2,x,x,x,-15%,x

# 3 successive entries already listed:
SMILES,gsp antagonist,CtBP-E1A inh,Menin MLL FP FL,ClpP mod,TRPV1 PAM,gsp agonist,Sfp PPTase inh
Cc1c(NC(=S)NC(=O)CSc2ccc(Cl)cc2)cccc1C(=O)O,0%,0,-0.3,-2.3%,15,-26%,13%
Cc1cccc(C(=O)n2c(=S)nc3ccccn32)c1,1%,-2,-1.6,-6.1%,6,-29%,40µM*
O=C1CCN(CCc2ccccc2)CCN1[C@H](CSc1ccc(Br)cc1)Cc1ccccc1,-5%,-14,10,0.3%,-14,x,7%

# Bioassay records: PubChem BioAssay, National Center for Advancing Translational Sciences (NCATS)
